Screening results as filed in PubChem BioAssay.
FEN1 inh: inhibitors of human flap endonuclease 1; P39748; Recombinant FEN1 flap cleavage, fluorescence, 15 min; Potency, µM (series often up to 114 µM), without a hit: top-dose activity change, negative = inhibition, actives largely listed as inhibitors; 0.35% of 390,000 active; also: nearly all actives have a fitted effect of over 65% in size
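Nuclease activity of 10 nM FEN1 was measured after 15 min of room-temperature exposure to titrated compounds, by adding 50 nM flap substrate and reading plates at 0 and 15 min.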
GCN5L2 inh: blocks human GCN5L2 histone acetyltransferase; Q92830; GCN5L2 HAT assay, ThioGlo1 CoA-SH fluorescence; Potency, µM (top dose mostly 58.9 µM), inactives show at the highest dose activity change, negative = inhibition, actives largely listed as inhibitors; 0.21% of 390,000 active; AID 504327
Target sequence (Q92830 whole entry, looked up): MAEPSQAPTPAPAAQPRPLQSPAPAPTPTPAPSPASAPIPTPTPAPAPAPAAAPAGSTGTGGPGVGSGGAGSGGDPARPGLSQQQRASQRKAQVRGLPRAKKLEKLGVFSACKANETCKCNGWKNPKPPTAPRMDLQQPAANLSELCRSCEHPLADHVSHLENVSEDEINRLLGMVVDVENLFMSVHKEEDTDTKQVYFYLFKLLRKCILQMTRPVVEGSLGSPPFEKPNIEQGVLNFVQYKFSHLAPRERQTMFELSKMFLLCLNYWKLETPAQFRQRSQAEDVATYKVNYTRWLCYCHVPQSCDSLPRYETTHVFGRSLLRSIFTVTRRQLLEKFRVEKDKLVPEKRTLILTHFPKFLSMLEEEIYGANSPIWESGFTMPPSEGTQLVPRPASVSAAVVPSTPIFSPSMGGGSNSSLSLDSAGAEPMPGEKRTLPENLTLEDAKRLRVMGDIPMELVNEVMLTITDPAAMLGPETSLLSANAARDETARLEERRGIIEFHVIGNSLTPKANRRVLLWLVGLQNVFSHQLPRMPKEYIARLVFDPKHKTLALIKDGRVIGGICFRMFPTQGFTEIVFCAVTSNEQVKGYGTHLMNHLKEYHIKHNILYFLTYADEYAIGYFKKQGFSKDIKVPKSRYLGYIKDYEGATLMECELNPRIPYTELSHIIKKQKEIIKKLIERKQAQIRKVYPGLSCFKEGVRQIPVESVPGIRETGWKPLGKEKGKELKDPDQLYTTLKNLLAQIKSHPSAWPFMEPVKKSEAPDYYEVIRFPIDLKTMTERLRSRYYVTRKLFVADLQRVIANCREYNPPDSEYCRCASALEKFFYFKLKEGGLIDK
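qHTS, 1536-well. 20nM enzyme, pH 7.5 HEPES/EDTA/Tween-20 buffer; 15 min compound preinc., RT. Start: 75uM H3(1-25), 70uM AcCoA, 50uM ThioGlo1. Read Ex340/Em540 at t=0 (autofluorescence flag) and t=20 min.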
Numbers without * were called inactive; x = no result given; & = joins results of further samples. Calls follow the shape of the dose curve; as a rule, active = well fitted curve in the direction sought with a large enough effect; inconclusive = small, poorly fitted or top-dose-only effect, or another doubt; inactive = no such curve, though single readings can be large; an effect the other way counts as inactive or inconclusive. % is scaled to controls: 0 for no effect and ±100 for the full control effect; potency is read from the fitted curve at half-maximal effect. Not all compounds are listed, and most or all hits are left out here.

SMILES	FEN1 inh	GCN5L2 inh
Cc1cc(C(F)(F)F)nn1CC(=O)NNC(=S)Nc1ccc(F)cc1	8%	-1%
N#CC1(Cc2ccccc2Cl)c2ccccc2C=CN1C(=O)c1ccccc1 (configuration not stated)	-9%	-3%
CCCCN1C(N)=NC[C@@H]1Cc1ccc(O)cc1	1%	3%
CC(C)c1ccc(CN2C(=O)c3ccccc3S2(=O)=O)cc1	-12%	-9%
C=CCC1(O)C(=O)N2C(=C1C(=O)OCC)c1ccc3ccccc3c1CC2(C)C (configuration not stated)	6%	-4%
CCOC(=O)N1CCN(C(=O)c2cccc(F)c2)CC1	-12%	3%
Cc1cccc(NC(=S)NCC(c2cccnc2)N(C)C)c1C (configuration not stated)	-13%	4%
COc1ccc(NC(=O)CSc2nnc(-c3ccccn3)n2N)cc1Cl	7%	2%
O=[N+]([O-])c1nn(-c2ccc3c(c2)OCCO3)n(O)c1=NCc1ccc(F)cc1Cl	12%	-9%
Cc1ccc(S(=O)(=O)Nc2cccc(Oc3cnccn3)c2)cc1	3%	-7%
Cc1ccccc1C(=O)NNC(=O)Cc1ccccc1	0%	12%
Cc1ccc(-c2nc3c(c(SCC(=O)Nc4ccccc4Cl)n2)Cc2c(CO)cnc(C)c2O3)cc1	0%	0%
CCOC(=O)c1c(-c2ccc(-c3ccccc3)cc2)csc1NC(=O)C1C2CCC(O2)C1C(=O)O (configuration not stated)	-2%	-22%
COCCn1nnnc1C(c1cc2cc(C)ccc2[nH]c1=O)N1CCN(C2CCCCC2)CC1 (configuration not stated)	2%	-13%
CCNC(=O)N1CCCC(C(=O)c2ccc3cc(OC)ccc3c2)C1 (configuration not stated)	-6%	1%
Cc1ccn2c(NC3CCCCC3)c(-c3cccc(-c4cccc(Cl)c4)c3)nc2c1	-2%	-28%
O=C(COc1ccc(Br)cc1)Nc1nnc(-c2cccnc2)s1	-2%	-1%
Cc1ccc(NC(=O)Cn2c(=O)n(Cc3ccc4c(c3)OCO4)c(=O)c3ccccc32)cc1	3%	-6%
c1csc(C(c2nnnn2C2CCCCC2)N2CCN(c3nc4ccccc4s3)CC2)c1 (configuration not stated)	7%	-1%
CN(C)c1ccc(-c2nn3c(-c4ccccc4Cl)nnc3s2)cc1	-3%	-26%
O=C(O)c1ccccc1-c1ccccc1C(=O)Nc1ccccc1-c1ccccc1	-5%	-9%
Cc1nc2ccccc2n1C1CCN(C(=O)Nc2ccccc2)CC1	21%	4%
Cc1cc(NC(=O)C2CCC(CNS(=O)(=O)c3ccc(Br)s3)CC2)ccc1Br (configuration not stated)	10%	-5%
Fc1ccc(NCc2ccccc2F)cc1Cl	4%	3%
COc1ccc(NC(=O)COC(=O)CCc2ccc(S(=O)(=O)N3CCOCC3)cc2)cc1Cl	-3%	-7%
CCCNC(=O)c1ccccc1NC(=O)c1ccccc1SC	-11%	-3%
CC1CCN(S(=O)(=O)c2ccc(NC(=O)Cc3ccccc3)cc2)CC1	-9%	1%
CN(CC(=O)Nc1ccccc1C(=O)NC1CC1)Cc1ccccc1F	4%	-7%
COc1ccc([N+](=O)[O-])cc1NC(=O)Cc1ccccc1Cl	-12%	-1%
COc1ccc(C(C)NC(=O)c2ccccc2Br)cc1OC (configuration not stated)	7%	-10%
COc1ccc(C(C)=O)cc1COC(=O)CCC(=O)c1cccs1	-12%	-8%
CS(=O)(=O)N(CC(=O)Nc1cccnc1)c1ccc2c(c1)OCO2	-13%	2%
O=C(Nc1cccnc1)c1ccc(NS(=O)(=O)c2cccc([N+](=O)[O-])c2)cc1	-15%	-6%
CCOC(=O)c1ccc(NC(=O)c2c(NCc3sccc3C)sc3c2CCC(C)C3)cc1 (configuration not stated)	-2%	-2%
O=C(CN1C(=O)C2CC=C(Cl)CC2C1=O)Nc1ccc(C(=O)O)cc1 (configuration not stated)	-9%	-11%
COc1cc(OC)cc(C(=O)Nc2ccc3c(c2)COC3=O)c1	8%	-4%
CC(C)CN(Cc1c(O)ccc2c3c(c(=O)oc12)CCC3)CC(C)C	-9%	-31%
COc1ccc(O)c(CN2CCCC(N3CCc4ccccc4C3)C2)c1 (configuration not stated)	4%	-3%
Cc1ccc(-n2nc(C(=O)O)c(O)cc2=O)cc1	-6%	1%
O=S(=O)(c1ccc(F)c(F)c1F)N1CCN(C(=S)Nc2ccccc2)CC1	-7%	-6%
COCCCC1CCN(C(=O)C2CCC(=O)N(Cc3ccccc3F)C2)CC1 (configuration not stated)	2%	0%
Cc1ccccc1CS(=O)(=O)Cc1ccc(C(=O)N2CCOCC2)o1	0%	-3%
CN(C(=O)Cn1c(=O)n(Cc2ccc(C(=O)NCc3ccc4c(c3)OCO4)cc2)c(=O)c2ccccc21)c1ccccc1	-3%	-10%
Cc1ccc(S(=O)(=O)N2CCCOC2CNC(=O)C(=O)NCc2cccs2)cc1 (configuration not stated)	2%	4%
CCc1ccccc1NC(=O)Cn1cc(C(=O)c2ccncc2)c(=O)c2cc(C)ccc21	5%	-8%
Cc1ccc(COn2nnc3ccc(S(=O)(=O)N4CCOCC4)cc32)cc1	5%	-1%
CN(C)c1cc(-c2ccc(Cl)cc2)oc(=O)c1Cl	-9%	-7%
CCOc1ccc(C(C)=O)cc1Cn1nc(C(=O)O)c2ccccc2c1=O	-23%	-6%
Cc1cc(C)cc(N2C(=O)CC(n3ccnc3)C2=O)c1 (configuration not stated)	-8%	x
N=c1c(C(=O)NCCc2ccccc2)cc2c(=O)n3ccccc3nc2n1Cc1ccco1	-6%	-9%
CCOC(=O)c1c[nH]c2c(C(F)(F)F)cccc2c1=O	-3%	-3%
c1ccc(-c2nn3c(-c4ccccc4)nnc3s2)cc1	7%	-2%
CC(=O)[C@@H]1[C@@H](C(=O)c2ccc(C)cc2)[C@]2(C(=O)Nc3ccccc32)[C@H]2C=Cc3cc(F)ccc3N12	-9%	-12%
CCc1ccc(OCC(=O)N(C)C2CCS(=O)(=O)C2)cc1 (configuration not stated)	-3%	-5%
O=C(CCc1ccc(S(=O)(=O)N2CCOCC2)cc1)N/N=C/c1cccc(O)c1	6%	-1%
Cc1ccc(CN(Cc2ccco2)C(=S)Nc2ccccc2C)cc1	13%	2%
CCOC(=O)c1ccc(NC(=O)CSc2nc(NC(=O)c3ccccc3)c3c(C)c(C)oc3n2)cc1	-8%	-8%
O=c1cc(Cl)c(-c2ccccc2)n[nH]1	10%	4%
C[C@H](CO)N1C[C@H](C)[C@@H](CN(C)Cc2ccc(Oc3ccccc3)cc2)Oc2c(NC(=O)C3CC3)cccc2C1=O	-3%	-16%
COC(=O)c1nnn(-c2cccc(C)c2)c1C(=O)OC	-2%	-1%
Next section.
SMILES	FEN1 inh	GCN5L2 inh
COc1ccc(Nc2ncnc3ccccc23)c(OC)c1	-3%	0%
NCCN	x	-21%
CC1(C)Cc2c(c(=S)nc(-c3ccccc3)n2CCCN2CCOCC2)CO1	7%	1%
NC(=O)c1ccc(F)cc1	-13%	0%
Cc1ccc(-c2[nH]nc3c2C(c2ccc(OC(=O)N4CCOCC4)cc2)C(C#N)=C(N)O3)cc1 (configuration not stated)	-26%	-16%
CN(Cc1ccc(N(C)C)cc1)C(=O)c1cc2ccccc2o1	-10%	-13%
Cc1cccc(-c2n[nH]c(=S)n2Cc2ccccc2)c1	-1%	-10%
CCNC(=O)CC1C(=O)N(c2ccc(C)cc2)C(=O)N1CCc1ccc(OC)c(OC)c1 (configuration not stated)	-11%	1%
O=S(=O)(NCC(c1cccnc1)N1CCN(c2ccc(F)cc2)CC1)c1ccc(F)cc1 (configuration not stated)	-11%	-7%
CC(C)=CCCC(C)CCO (configuration not stated)	-4%	-2%&-18%
CCC1=NN(C(=O)c2cccc(Br)c2)C(O)(c2ccc(Br)cc2)C1 (configuration not stated)	-29%	-9%
COC(=O)C1=NNC2(c3ccc(C)cc3)C(=O)N(c3ccc(C)cc3)C(=O)C12 (configuration not stated)	5%	-8%
Cc1ccc(CCNC(=O)c2nc(CS(=O)(=O)c3ccc(Cl)cc3)no2)cc1	-2%	-5%
O=C(N/N=C/c1cccnc1)c1ccco1	8%	16%
NC(=O)NC(=O)COC(=O)CN1C(=O)C2CCCCC2C1=O (configuration not stated)	10%	0%
COC(=O)CCCC(=O)Nc1c(F)c(F)c(F)c(F)c1F	10%	-22%
C[C@@H]1NC(=O)[C@@]2(C)[C@@H](c3ccccc3)[C@H]3COc4ccc(Cl)cc4[C@@H]3N2C1=O	-2%	1%
CN1CCC(N(C)C(=O)/C(C#N)=C\c2ccc(OC(F)F)cc2)CC1	2%	x
Cc1cccc(CNc2cc(-c3cccnc3)ncn2)c1	x	-9%
COc1ccc(NC(=O)CSc2ccc3c(c2)OCCO3)cc1	-18%	-5%
COC(=O)C(C)N(C#N)c1nc(C)nc(C)n1 (configuration not stated)	-1%	-4%
CCN(CC)CCNC(=O)Cc1c(C(=O)O)n(C)c2ccccc12	-3%	2%
Cc1onc(-c2c(F)cccc2Cl)c1C(=O)c1ccc(F)cc1	11%	-6%
COc1ccc(NC(=O)C2CCCN(c3ncnc4c3nc3n4CCCCC3)C2)c(OC)c1 (configuration not stated)	-1%	-7%
CC(=O)Nc1ccc(NC(=O)COC(=O)c2c3c(nc4ccccc24)CCN(Cc2ccccc2)C3)cc1	1%	-10%
Cc1ccc(Cn2c(=O)c3cccnc3n(Cc3ccc(F)cc3)c2=O)cc1	11%	-3%
Cc1ccc(-n2nc3c(c2NC(=O)c2ccco2)CS(=O)(=O)C3)cc1	1%	-2%
COc1cc(C=C2C(=O)OC(C)(C)OC2=O)cc(Cl)c1OCC(=O)Nc1ccccc1	11%	-3%
CCN(CC)C(=O)c1sc2nc(N3CCOCC3)c3c(c2c1N)CCCC3	-19%	-10%
Cn1cnnc1SCc1nnc(-c2ccccc2Br)o1	-5%	-7%
CCCNC(=O)Nc1ccccc1C(=O)Nc1ccc(OC)cc1	-2%	-1%
CC1(C)Cc2c(sc(/N=C/N3CCCCC3)c2C#N)C(C)(C)N1	7%	-2%
CCOc1ccc(Br)cc1S(=O)(=O)Nc1ccc(C(=O)OCC(=O)Nc2ccc(C#N)cc2)cc1	6%	-16%
CCN1CCN(C(=S)Nc2cccc([N+](=O)[O-])c2)CC1	-3%	0%
CN1CCN(C(=O)c2cc3c(C(F)(F)F)nn(C)c3s2)CC1	-8%	-6%
COc1ccccc1NC(=O)C1CCCN1S(=O)(=O)c1cccc2nsnc12 (configuration not stated)	-10%	2%
O=C(Nc1nncs1)c1cc(-c2ccncc2)nc2ccc(Cl)cc12	-3%	-2%
COC(=O)c1cn(-c2nc(C)c3c(n2)CCC3)nn1	1%	-9%
O=c1c(F)cn(C2CCCO2)c(=O)n1Cc1ccccc1F (configuration not stated)	-8%	4%
OCCCc1nc2ccccc2n1CCOc1ccccc1	-3%	2%
Cc1cc(C)n(-c2nc3ccccc3nc2N2CCN(C(=O)c3ccc(F)cc3)CC2)n1	6%	-1%
COC(=O)c1c(NC(=O)C2c3ccccc3Oc3ccccc32)sc2c1CCC(C)C2 (configuration not stated)	-15%	-7%
